Ba CapD inh: blocks the Bacillus anthracis CapD enzyme | purified CapD enzyme, fluorescence intensity read-out; active compounds read low; some hits fall short of the stated cut | z-score (no concentration beside the values) | AID 492967 | 0.23% of 140,000 active;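 active = z-score under -4 in either of two replicates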;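 note: stock transfer was 100 nL into about 40 µL; score is relative to mean and spread of the plate; one replicate is shown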
AID504770: E. coli YBA685 growth inhibition, screen for V. cholerae RctB inhibitors; E. coli YBA685 rctB-dependent plasmid, OD600 growth, 3 h; active compounds read low; AID 504770; 0.27% of 130,000 active; z-score (test concentration not listed);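 active = z-score under -2 on both plates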;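 note: wells of about 30 µL received 100 nL stock; score is relative to mean and SD of the test wells; the first replicate is given; strong numbers were not always called active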
* marks the source's active call; other numbers are inactive results; x = no result given; & = joins results of further samples.

compound	Ba CapD inh	AID504770
CCNc1nc(NCC)nc(NNS(=O)(=O)c2cc(Br)ccc2Br)n1	x	1.5
FC(F)(F)Oc1ccc(C2=NCCc3sccc32)cc1	-0.24	x
O=C(CSc1nncs1)NCCN1C(=O)CSC1=O	x	0.65
O=C(CN=C1NS(=O)(=O)c2ccccc21)N1CCC(c2nc3ccccc3s2)CC1	x	0.4
Cc1ccc(NC(=O)COC(=O)C2=NC=CN3CCS(=O)(=O)N=C23)cc1	x	-1.2
O=C(CSc1ccccc1)N1CCc2ccccc2C1	-0.5	-0.3
Cn1ncc(C(=O)O/N=C/c2ccc(OC(F)(F)F)cc2)c1-n1cccc1	0.78	0
Cc1ccc(NC(=O)COC(=O)CN2CSCC2=O)cc1C	x	-0.75
Cc1cc(=O)n(Cc2ccc(Cl)cc2)c(SCC(N)=O)c1C#N	x	0.65
CCOC(=O)c1cc(-c2ccco2)nn1-c1ccc(C)cc1C	x	0
COc1ccc(N2C(=O)c3ccccc3NC2c2ccc(OC)c(Cn3nnc4ccccc43)c2)cc1 (stereo not drawn)	18	x
COc1ccc(-c2ccc(-c3ccccc3)o2)cc1	46	0.3
COc1ccc(S(=O)(=O)Nc2ccc3oc(=O)sc3c2)cc1	-0.005	-0.8
COc1ccc(NC(=O)CCN2CCOCC2)cc1	x	-0.2
CCOC(=O)c1ccc(N2C(=O)NC(=O)/C(=C\c3ccc(N(C)C)cc3)C2=O)cc1	0.58	x
CCC(C)(C)NC(=O)Cn1c(C)csc1=O	x	0.75
Cc1nc2oc(C(=O)c3ccc(Br)cc3)c(N)c2c2c1COC(C)(C)C2	-0.66	x
Cc1ccc(C)c(C(=O)COC(=O)c2cccc(C(=O)OCC(=O)c3cc(C)ccc3C)n2)c1	-0.12	0.45
N#C/C(=C(/O)c1cccc(Cl)c1)c1nc2ccccc2s1	x	0.75
COc1cc(C2c3c(-c4ccc(F)cc4)n[nH]c3C(=O)N2c2ccccc2)ccc1O (stereo not drawn)	-0.12	1.8
CN(C)c1ccc(/C=N/n2cnc3ccccc32)cc1	6.3	-0.55
CCCC1c2cccn2CCN1C(=O)NCc1ccccc1 (stereo not drawn)	-0.31	-0.8
COc1ccccc1NC(=S)Nc1ccccc1	x	-0.9
COc1cc(OC)c([N+](=O)[O-])cc1/C=C1/C(=O)NC(=O)N(c2cccc(C)c2)C1=O	-0.55	x
COc1ccc(NC(=O)c2oc3ccc(S(=O)(=O)N4CCC5(CC4)OCCO5)cc3c2C)cc1	40	0.4
Cc1cc2n(n1)C(c1ccccc1)Nc1ccccc1-2 (stereo not drawn)	x	-0.6
CCOc1ccccc1NC(=O)C1CCC(=O)N1S(=O)(=O)c1ccc(C)cc1 (stereo not drawn)	-1.3	2.4
CCn1c(NNC(=O)c2cccnc2)nc2ccccc21	-0.2	-0.85
O=C(N/N=C/c1ccc(F)cc1)c1ccc(NC(=O)C2CC2)cc1	x	1.6
Cc1ccc2c(c1)-c1c(sn(-c3ccc(Cl)c(Cl)c3)c1=S)C(C)(C)N2C	0.46	x

Filtered by structure, the entries above with an aryl thioether with sulfur outside any ring.
compound	Ba CapD inh	AID504770
O=C(CSc1nncs1)NCCN1C(=O)CSC1=O	x	0.65
O=C(CSc1ccccc1)N1CCc2ccccc2C1	-0.5	-0.3
Cc1cc(=O)n(Cc2ccc(Cl)cc2)c(SCC(N)=O)c1C#N	x	0.65

The results go on:
compound	Ba CapD inh	AID504770
Cc1ccc(-c2cc(C)n3nc(N4CCOCC4)c(C#N)c3n2)cc1	x	-0.2
CNC(=O)CSc1nc2ccccc2[nH]1	0.21	-0.25
O=C(Cc1ccccc1F)Nc1ccnn1Cc1ccccc1	x	1.1
CC1(C)CC(=O)C2=C(C1)N(c1ccccc1)C(=O)CC2c1ccc2c(c1)OCO2 (stereo not drawn)	-0.17	x
COC(=O)Cc1csc2ccc(Cl)cc12	-0.045	x
CC(C)(C)c1ccc(OCCOc2ccccc2C=C2C(=O)NC(=O)NC2=O)cc1	-1.1	x
CC1(C)CC(=O)c2cnn(-c3nc4ccccc4[nH]3)c2C1	1	-0.65
CCOC(=O)c1c(CN2CCCC2)n(C2CCCCC2)c2cc(Br)c(O)cc12	-0.49	x
O=C(c1c[nH]c(C(=O)C(Cl)(Cl)Cl)c1)c1ccc(Cl)cc1Cl	-0.94	x
O=C(CN1C(=O)C2CC=CCC2C1=O)OCc1nnc(-c2ccccc2Br)o1 (stereo not drawn)	x	0.4
O=S(=O)(NC1CCCCC1N1CCCCC1)c1ccc(Cl)cc1 (stereo not drawn)	-0.02	1.9
CC(Sc1ncnc2c1oc1ccccc12)C(=O)c1ccc(F)cc1 (stereo not drawn)	x	-0.55
Clc1cc2c(c3ncccc13)OCN(CCC1=CCCCC1)C2	12	-0.65
Cc1cc(=O)oc2n[nH]c(C)c12	0.025	x
Cc1nc2ccc(Cl)cc2c2c1C(=O)N(Cc1cccnc1)C2=O	0.065	x
CCCCOC(C)n1ccc(=O)[nH]c1=O (stereo not drawn)	-0.72	-0.35
O=C(NCCC1=CCCCC1)c1ccc2c(c1)ncn2C1CCCC1	-0.18	-0.45
N#Cc1c(-c2ccco2)cc(-c2ccco2)[nH]c1=O	5.9	0.15
Nc1c(C(=O)Nc2cccc(F)c2)sc2nc3c(c(-c4ccco4)c12)CCCC3	0.11	x
COc1cccc(OCC(=O)OC2CCS(=O)(=O)C2)c1 (stereo not drawn)	-0.92	-0.25
N#Cc1ccc(Oc2ccc(NC(=O)c3ccc(Br)o3)cc2)cc1	-0.62	2
N#Cc1ccc(-c2ccccc2)nc1SCC(=O)c1ccc(O)c(O)c1	-0.88	x
CCOC(=O)c1cnc(SC)nc1Oc1cccc(NS(C)(=O)=O)c1	-0.9	x
Cc1ccc(SC(=O)c2ccc(C#Cc3ccccc3)o2)cc1	-3	0.25
COc1ccccc1NC(=S)N/N=C1/C=C(C)CC1	x	2.7
N=c1ccn(CC(=O)N2CCCc3ccccc32)c2ccccc12	0.55	-0.7
O=C(Nc1ccccc1)c1cccc(I)c1	0.3	0.15
O=C(CN1C(=O)/C(=C/c2cccc(Br)c2)SC1=S)NCCc1ccccc1	-0.41	1.1
C=CCn1c(SCc2ccc(C(=O)O)cc2)nnc1-c1cccc(OC)c1	0.69	-0.35
CC(C)S(=O)(=O)c1csc(C(=O)Nc2ccc(F)cc2)c1N	4.2	-0.35

Next section, overlapping the part above by 6 compounds.
compound	Ba CapD inh	AID504770
COc1ccccc1NC(=S)N/N=C1/C=C(C)CC1	x	2.7
N=c1ccn(CC(=O)N2CCCc3ccccc32)c2ccccc12	0.55	-0.7
O=C(Nc1ccccc1)c1cccc(I)c1	0.3	0.15
O=C(CN1C(=O)/C(=C/c2cccc(Br)c2)SC1=S)NCCc1ccccc1	-0.41	1.1
C=CCn1c(SCc2ccc(C(=O)O)cc2)nnc1-c1cccc(OC)c1	0.69	-0.35
CC(C)S(=O)(=O)c1csc(C(=O)Nc2ccc(F)cc2)c1N	4.2	-0.35
Cc1ccccc1OC(=O)c1ccc2c(c1)C(=O)N(C)C2=O	-0.06	-0.85
CC(=O)N[C@@H](CC(C)C)C(=O)O	1.5&-0.18&-0.2	-0.05
Cc1cc(SCC(=O)O)nc2ccccc12	6.4	-0.2
Cc1ccc(OC(=O)C(CCS(C)(=O)=O)N2C(=O)c3ccccc3C2=O)c(-n2nc3ccccc3n2)c1 (stereo not drawn)	0.34	-0.45
Cc1ccc(C(=O)N/C(=C/c2ccco2)C(=O)Nc2cccc(C)c2)cc1	0.08	-0.45
COc1ccc(N2CCSC2C(=O)NN)cc1 (stereo not drawn)	0.2	-0.95
N#CC1=C(N)Oc2n[nH]c(-c3ccccc3)c2C12C(=O)Nc1ccc(Cl)cc12 (stereo not drawn)	0.28	x
COc1cc(C(=O)NNc2ccccc2)cc(OC)c1OC	-0.08	-1
O=C(O)C1CC(c2ccccc2)=NO1 (stereo not drawn)	x	1.8
Cc1ccc(C(=O)Oc2cccnc2I)cc1	-0.48	-0.75
CCN(CC)Cc1cc(C2N(C(C)=O)c3cccc4cccc(c34)N2C(C)=O)ccc1O	x	0.05
CC1CC(C(F)(F)F)n2nc(C(=O)O)cc2N1 (stereo not drawn)	0.28	0.8
O=C(CSc1ccccc1)Oc1ccc2c(c1)OCO2	x	-0.6
Cc1nc(C)c(-c2ccnc(-c3ccc(C(F)(F)F)cc3)n2)o1	-0.16	x
CCCN1C2CCCC1CC(NC(=O)Nc1ccc(SC)cc1)C2 (stereo not drawn)	x	-0.7
COc1ccc(S(=O)(=O)N(CCC#N)C2CCc3ccccc32)cc1OC (stereo not drawn)	-0.26	-0.8
Cc1ccc(C)n1CCN(C(C)C)C(C)C	x	-0.2
Cc1nc(N2CCCCC2)c2c(C)c(C(=O)Nc3ccc4c(c3)OCCO4)sc2n1	-1.1	x
Cc1onc(-c2ccccc2)c1C(=O)NCC#N	x	-0.6
CCOC(=O)N1CCC(NC(=O)Cn2c3ccccc3c3cn[nH]c(=O)c32)CC1	11	-0.7
CCCc1nnc2sc(NC(=O)CC)nn12	0.3	0.7
CN1CCN(C(=O)/C(=C/c2cn(S(=O)(=O)N(C)C)c3ccccc23)NC(=O)c2ccccc2)CC1	-0.81	0.3
COC(=O)C1=C(C)OC(N)=C(C#N)C1c1ccc(SC)cc1 (stereo not drawn)	3.9	x
CSc1nc(N)nc(-c2ccncc2)n1	0.47	x
O=c1cc(CP(=O)(c2ccccc2)c2ccccc2)[nH][nH]1	x	0
COc1ccc(-c2nn(-c3ccccc3)cc2C=Nc2ccc(O)cc2)cc1	-0.28	-0.45
CCc1nc2n[nH]c(N)c2c2c1COC(C)(C)C2	0.55	-1.1
Cc1ccc(S(=O)(=O)N(CCC(N)=O)c2ccccc2)cc1	x	-3.3
O=C(NN=C1CCCCC1)NC1CCCCC1	x	-0.1
O=C(NCCn1ccc2ccccc21)c1cc2ccccc2oc1=O	1.3	-0.1

(list continues)
Order of results: Ba CapD inh | AID504770
O=C(N/N=C/c1cccc(Cl)c1Cl)c1ccc([N+](=O)[O-])cc1Cl
→ 0.075 | x
Nc1ncc(S(=O)(=O)c2ccc(Cl)cc2)c(-c2ccc(Cl)cc2)n1
→ 0.48 | x
C=CCn1c(Sc2c3c(nc4ncnn24)CCC3)nnc1-c1ccccc1
→ -0.11 | -0.5
CC(NC(=O)c1ccccc1)C(O)c1ccccc1 (stereo not drawn)
→ -0.51 | 0.35
O=C(O)c1ccc(CSc2nc(-c3ccccc3)cc(C(F)(F)F)n2)o1
→ 0 | 0.5
Fc1ccc(N2CCN(Cc3cnc(-c4ccccc4)[nH]3)CC2)cc1
→ 0.47 | -0.55
CN(CC(O)COc1ccc(S(=O)(=O)N2CCOCC2)cc1)C1CCCCC1 (stereo not drawn)
→ x | -1.1
O=C(Cn1ccsc1=NC(=O)c1ccco1)c1ccccc1
→ 3.7 | -0.05
CC(=O)NCCC(=O)N1CCc2ccccc21
→ x | 0
CCOC(=O)c1c(N)n(CCO)c2nc3ccccc3nc12
→ x | -0.45
NC(=O)c1cccc(N=Cc2cc(Br)ccc2O)c1
→ 0.34 | -0.55
COc1ccc(NCc2cc3ccccc3[nH]c2=O)cc1
→ -0.46 | 0.3
C=CCSc1nnc(C)c(/C=C/Nc2cccc(C(F)(F)F)c2)n1
→ -0.4 | x
Cc1cccn2c(=O)c(/C=C3/SC(=S)N(C4CCCCC4)C3=O)c(N3CC(C)OC(C)C3)nc12 (stereo not drawn)
→ -0.11 | x
COc1ccccc1NC(=O)CSC1=NCCS1
→ 0.23 | 1
Cc1ccc2c(c1)c1c(c(=O)n(-c3ccccc3)c(=O)n1CC(=O)c1ccccc1)n2C
→ 0.21 | 1.5
CC1C(=O)N(Cc2ccccc2)c2ccccc2N1C(=O)c1ccccc1 (stereo not drawn)
→ -0.75 | x
Nc1nonc1-c1noc(-c2cccc(COc3ccc(Cl)cc3Cl)c2)n1
→ 0.18 | x
CC1CCN(S(=O)(=O)c2ccc3c(c2)CCN3C(=O)Nc2ccccc2)CC1
→ 0.2 | -0.4
COC(=O)c1ccc(NC(=O)CSc2nc(=O)cc(N)n2CCc2ccccc2)cc1
→ 0.005 | -0.7
COc1cc(OC)nc(-c2ccc(C(=O)N3CCN(c4nc(C)cc(C)n4)CC3)cc2)n1
→ -0.24 | x
O=C(O)Cc1ccc(-n2c(-c3ccncc3)n[nH]c2=S)cc1
→ x | -0.55
CCCc1cc(=O)n2nc(N(C)CC(=O)N3CCCC3)sc2n1
→ -0.1 | -0.5
Cc1nnc(Nc2ccccc2O)c2ccccc12
→ -1.5 | x
S=C(Nc1ccccc1)N(Cc1ccccc1)Cc1ccccc1
→ 13 | 0.1
CC(C)C(=O)Nc1nnc(SCC(=O)Nc2ccccc2)s1
→ 0.14 | -1.1
Cc1ccc(N2CCN(/N=C\C=C\c3ccccc3)CC2)cc1
→ 1.4 | -0.75
Cc1ccc2[nH]c3nc(=S)[nH]nc3c2c1
→ 0.21 | 1.4
C=CCOc1ccc(C(c2c(C)[nH]n(-c3ccccc3)c2=O)c2c(C)[nH]n(-c3ccccc3)c2=O)cc1
→ -0.62 | x
O=C(Nc1ccccc1N1CCOCC1)c1sc2ccccc2c1Cl
→ -0.25 | 0.5
O=C(c1cccnc1)N1CCC2(CC1)OCCO2
→ 0.39 | -0.75
COc1cc(C2Nc3ccccc3-c3nc4ccccc4n32)cc(OC)c1OC (stereo not drawn)
→ 71 | 0.4
O=S(=O)(c1cccc(NC2CCNCC2)c1)C(F)(F)F
→ -0.18 | x
Cc1ccccc1N(C)C(=O)c1ccc2c(=O)n3c(nc2c1)CCCCC3
→ -0.61 | -0.9
O=c1c2ccccc2nc(CN2CCCCC2)n1-c1ccccc1
→ x | 0.65
CN(CC(=O)Nc1ccc(SC(F)F)cc1)C1CCCCC1
→ x | -1.4
COc1ccc(CC(=O)NNC(=S)NCC2CC2)cc1OC
→ 0.025 | x

Assay outcomes as filed in PubChem.
